# Source: PubChem BioAssay (National Center for Advancing Translational Sciences (NCATS))
# A647 fluor = compound fluoresces in the A647 spectral region; AID 592; 59,000 tested, under 10 active; Compound fluorescence, A647 channel (570/671 nm), Tris buffer; max dye-equivalent concentration, M; active means above 1 µM dye equivalent; inconclusive means 0.1 to 1 µM; inactive means 0.1 µM or less;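 also: values scaled relative to a standard on each plate; highest value over a series up to 38 µM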
#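 Buffer was dispensed, compounds and Alexa 647 standards were pin-transferred, and plates sat 15 min at room temperature. Intensity at 570/671 nm was then converted to dye-equivalent concentration using the plate's A647 standard curve.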
# A488 fluor = compound fluoresces in the A488 spectral region; 59,000 tested, 0.1% active; max dye equivalency, M; compound autofluorescence, A488 spectral region, dye equivalency; hits give high values; active = above 10 nM dye equivalent; inconclusive = 1 to 10 nM; inactive = 1 nM or less; about half of its hits are not listed in these tables;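 also: highest value over a series up to 38 µM; compound alone in buffer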
#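 Intrinsic compound fluorescence is measured in 100 mM Tris buffer at pH 8.0 following 15 min incubation at room temperature. Intensities at 480 nm excitation/540 nm emission are calibrated to an on-plate A488 concentration series, giving dye-equivalent concentrations.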
# TSHR agonist = TSH receptor (human) agonism; 73,000 tested, 0.48% active; Potency, µM (top dose mostly 57.1 µM), without a hit: at the top dose activation, actives largely listed as activators; P16473; HEK293-CNG-TSHR cells (CNG channel as cAMP sensor), membrane potential dye, cAMP; active = well fitted activation curve of enough size with the parental cells flat; inconclusive = any curve in the parental cells; inactive = parental cells flat and receptor cells flat or falling; also: potency is read from the fitted curve at half-maximal effect; % of control where 0% means no effect; weak receptor curves with flat parental cells got no call and are not listed
# Target sequence (P16473 whole entry, looked up): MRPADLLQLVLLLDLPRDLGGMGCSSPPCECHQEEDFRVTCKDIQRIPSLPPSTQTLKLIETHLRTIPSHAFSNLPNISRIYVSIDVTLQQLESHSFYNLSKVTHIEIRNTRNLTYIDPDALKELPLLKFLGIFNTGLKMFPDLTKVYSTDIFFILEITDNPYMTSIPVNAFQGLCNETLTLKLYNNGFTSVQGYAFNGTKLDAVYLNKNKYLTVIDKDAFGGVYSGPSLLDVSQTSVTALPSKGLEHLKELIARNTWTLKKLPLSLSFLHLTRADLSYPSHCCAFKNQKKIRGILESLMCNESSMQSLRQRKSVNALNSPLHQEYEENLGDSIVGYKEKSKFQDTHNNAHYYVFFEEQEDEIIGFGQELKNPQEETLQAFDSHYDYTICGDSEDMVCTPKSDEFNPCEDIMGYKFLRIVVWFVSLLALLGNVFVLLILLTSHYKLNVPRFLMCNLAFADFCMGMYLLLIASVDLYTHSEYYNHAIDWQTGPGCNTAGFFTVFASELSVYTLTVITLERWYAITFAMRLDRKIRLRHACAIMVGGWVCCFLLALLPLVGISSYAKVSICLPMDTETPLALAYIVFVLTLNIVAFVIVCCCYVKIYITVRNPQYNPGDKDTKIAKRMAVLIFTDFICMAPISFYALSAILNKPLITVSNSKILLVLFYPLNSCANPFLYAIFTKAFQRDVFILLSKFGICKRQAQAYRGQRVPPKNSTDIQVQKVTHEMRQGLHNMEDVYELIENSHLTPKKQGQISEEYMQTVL
#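 HEK 293 cells stably expressing TSHR and a modified CNG channel, with CNG-only parental cells as counterscreen, were preloaded 60 min at room temperature with membrane potential dye containing 100 uM RO 20-1724. Compound exposure was 30 min, and depolarization was read as fluorescence at 590 nm.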
# AID923 = qHTS Assay for Allosteric/Competitive Inhibitors of Caspase-1: Spectroscopic Profiling in AFC Spectral Region. compound fluorescence, AFC spectral region (405/520 nm); almost no hit is shown here. Potency, µM (titrated, usually from 57.5 µM), inactives show at the highest dose fluorescence increase, usual class: activators. 75,000 tested, 1.1% active. AID 923, 2007; active = well fitted activation curve with a large enough effect; inconclusive = small, poorly fitted or top-dose-only effect;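 also: potency is read from the fitted curve at half-maximal effect; 0% is about no effect; scaled to a free AFC standard on each plate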
#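 Titrations up to 57 uM read every 20 sec for 3 min (405/520 nm) with 50 nM caspase 1 and 5 uM Ac-WEHD-AFC, pH 7.5 HEPES buffer. Fluorescence-vs-time intercept gave baseline, scaled against on-plate AFC standard.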
# Resorufin autofl = compound fluoresces in the resorufin spectral region | 59,000 tested, 0.04% active | max dye-equivalent concentration, M | Compound fluorescence, resorufin region 547/598 nm, buffer; hits give high values; active = above 10 nM dye equivalent; inconclusive = 1 to 10 nM; inactive = 1 nM or less; a few of its hits are not listed in these tables; also: highest value over a series up to 38 µM
#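 Tris 100 mM pH 8.0; compound added, 15 min RT; CCD imager read, ex 547 nm/em 598 nm; signal normalized to resorufin standard curve (six concentrations per plate) as dye-equivalent concentration.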
# * = called active by the depositor; i = inactive; ? = inconclusive; . = no result given; & = joins results of further samples; [ ] = another dose, or the depositor's remark. The list is partial; count on the stated rates, not on these rows.
SMILES,A647 fluor,A488 fluor,TSHR agonist,AID923,Resorufin autofl
CCN(CC)c1ccc(NC(=O)Cn2cc3c(n2)CCC(C)C3)c(C)c1 (configuration not stated),.,.,-5%,-6.1%,.
O=C(NCCc1c[nH]c2ccccc12)C1CCN(c2nnc(N3CCCC3=O)s2)CC1,1e-09,i,-2%,0.7%,i
COC(=O)c1ccc(-c2ccc(CNCC(O)c3ccccc3)o2)cc1 (configuration not stated),2.9e-09,i,14%,-0.2%,i
CN(C(=O)c1ccc(NC(=O)C2CC=CCC2C(=O)O)cc1)c1ccccc1 (configuration not stated),3.9e-09,i,-2%,1.4%,i
CCOCCn1c(N2CCN(c3ccc(OC)cc3)CC2)nc2c1c(=O)n(C)c(=O)n2C,8.2e-09,i,19%,-3.1%,i
O=C(CC1(O)C(=O)Nc2cc(Cl)cc(Cl)c21)c1ccccc1O (configuration not stated),3e-08,i,11%,-1.5%,i
Cc1ccc2c(c1)C(O)(CC(=O)c1cccnc1)C(=O)N2 (configuration not stated),1e-09,i,-3%,-1.1%,i
COc1ccc(CCNC(=O)CCNS(=O)(=O)c2cccc3nsnc23)cc1OC,1e-09,i,2%,1.7%,i
COCCn1c(=O)c(-c2cc(F)cc(F)c2)nc2cnc(OC)nc21,2.9e-08,i,-7%,4.4%,i
Cc1c(NC(=O)CSc2nncc3ccccc23)c(=O)n(-c2ccccc2)n1C,3e-08,i,-2%,-0.5%,i
OCC1OC(/C=C\c2ccccc2)C=CC1Oc1ccc2c(c1)OCO2 (configuration not stated),.,.,?,-0.4%[11.5 µM],.
CC[C@]1(c2ncc[nH]2)Cc2ccccc2O1,.,.,?,0.0%,.
OC(CN1CCCCC1)CN(c1ccccc1)c1ccccc1 (configuration not stated),1e-09,i,6%,1.2%,i
CN(C)S(=O)(=O)c1ccc(NS(=O)(=O)/C=C/c2ccccc2)cc1,1e-09,i,4%,-0.3%,i
O=C(CN1C(=O)CSC1=O)c1ccccc1,1.3e-08,i,-1%,-0.7%,i
CCOc1ccc(CNC23CN4CN(CN(C4)C2)C3)cc1,3.4e-09,i,0%,0.5%,i
Cc1c(Br)cc(C(=O)NCCCN2CCOCC2)c(C)c1C,.,.,?,1.2%,.
CCCCn1c(C(C)NC(=O)CCC)nc2ccccc21 (configuration not stated),.,.,14%,1.6%,.
CNC(=O)Nc1cc(C(C)(C)C)no1,1e-09,i,0%,0.3%,i
CSc1nc(-c2ccco2)nn1S(=O)(=O)c1ccccc1,6.7e-09,i,?,1.8%,i

# Part of the list above in order of SMILES length, smallest number first:
SMILES,A647 fluor,A488 fluor,TSHR agonist,AID923,Resorufin autofl
O=C(CN1C(=O)CSC1=O)c1ccccc1,1.3e-08,i,-1%,-0.7%,i
CCOc1ccc(CNC23CN4CN(CN(C4)C2)C3)cc1,3.4e-09,i,0%,0.5%,i
COC(=O)c1ccc(-c2ccc(CNCC(O)c3ccccc3)o2)cc1 (configuration not stated),2.9e-09,i,14%,-0.2%,i
CCN(CC)c1ccc(NC(=O)Cn2cc3c(n2)CCC(C)C3)c(C)c1 (configuration not stated),.,.,-5%,-6.1%,.
CN(C(=O)c1ccc(NC(=O)C2CC=CCC2C(=O)O)cc1)c1ccccc1 (configuration not stated),3.9e-09,i,-2%,1.4%,i

# The list continues.
SMILES,A647 fluor,A488 fluor,TSHR agonist,AID923,Resorufin autofl
CCC(C)NC(=O)Cn1cnc2sc(C)cc2c1=O (configuration not stated),7.6e-09,i,0%,-0.7%,i
c1csc(-c2csc(-c3cccs3)n2)c1,2.2e-08,i,8%,0.8%,i
CC(C)(C)OC(=O)NC(CCNC=C1C(=O)OC(C)(C)OC1=O)C(=O)O (configuration not stated),1.3e-08,i,3%,0.7%,i
Cc1nn(Cc2ccc(Cl)c(Cl)c2)c(C)c1NC(=O)c1cc(-c2ccco2)on1,2.1e-08,i,2%,0.1%,i
CS(=O)(=O)N1CCN(C(=O)c2ccc(-c3ccccc3)cc2)CC1,.,.,3%,-0.2%,.
CCC(c1nnnn1CCc1ccccc1)N1CCN(C(=O)c2ccco2)CC1 (configuration not stated),2.7e-08,i,24%,0.9%,i
CCOc1ccc(C2C(C(=O)Nc3ccc(F)cc3)=C(C)Nc3nc(CCCO)nn32)cc1 (configuration not stated),.,.,-14%,0.0%,.
Cc1c(NS(=O)(=O)c2cccc3nsnc23)c(=O)n(-c2ccccc2)n1C,2.1e-08,i,.,.,i
O=C1c2ccccc2CN1CCNS(=O)(=O)c1ccc(Cl)cc1,3.2e-08,i,0%,0.8%,i
CC(C)Cn1c(=O)c(C(=O)Nc2ccccc2S(N)(=O)=O)c(O)c2ccccc21,.,.,?,2.2%,.
CCOC(=O)Nc1ccc(S(=O)(=O)NCc2ccccc2)cc1,1e-09,i,?,0.9%,i
COc1cc(OC)c(C2C(C#N)=C(N)Oc3cc(C)n(CCCN4CCOCC4)c(=O)c32)cc1OC (configuration not stated),7e-09,i,-8%,0.1%,i
O=C(CN1C(=O)CSC1=O)Nc1ccccc1N1CCOCC1,1e-09,i,-4%,0.8%,i
COc1cccc(-n2c(CNc3ccc(F)cc3)nnc2SCC(N)=O)c1,5.9e-09,i,-3%,-0.2%,i
O=C(Nc1ccc(Cl)cc1)Nc1ccc2c(c1)N1CCN=C1S2,3.2e-08,i,-21%,-0.5%,i
CCc1ccc2nc(SCC(=O)N(CC)CC)c(C#N)cc2c1,1e-09,i,?,1.7%,i
Cn1cccc1C(=O)N1CCC2(CC1)CCN(c1ccc(-c3ccccc3)cc1)CC2,1e-09,i,.,1.0%,i
Oc1c(I)cc(I)c2cccnc12,1e-09,i,.,1.2%,i
COc1cc2c(CCNC(C)=O)c[nH]c2cc1Cl,1.4e-08,i,-6%&1%,-2.5%,i
CC1CC(C)CN(CCCn2c(=S)[nH]c3ccccc3c2=O)C1 (configuration not stated),3.9e-08,i,1%[11.4 µM],-1.5%,i
Cc1cc(C)c(S(=O)(=O)O)c(C)n1,8.1e-08,i,.,.,i
CN(C)c1cc(O)c(C(=S)Nc2ccccc2)c(N(C)C)c1,1e-09,i,?,3.3%,i
O=C(Nc1nc(-c2ccncc2)cs1)c1ccc(S(=O)(=O)N2CCOCC2)cc1,1.1e-08,i,0%[11.4 µM],-1.4%,i
CC(CN(C)Cc1ccccc1)OC(=O)c1ccc2c(c1)OCCO2 (configuration not stated),4.3e-09,i,?,1.5%,i
O=C(NC1CCCCCCC1)c1ccco1,1.5e-09,i,17%,4.4%,i
O=C(CN1C2=NCCN2c2ccccc21)N1CCOCC1,1.6e-09,i,.,.,i
COCCn1c(=NC(=O)CSC(C)=O)sc2cc(OC)ccc21,.,.,-4%,-0.5%,.
CN(C1CCS(=O)(=O)C1)S(=O)(=O)c1ccc(N2CCCC2=O)cc1 (configuration not stated),1e-09,i,0%,-0.8%,i
CCc1nnc(NC(=O)c2ccncc2)s1,1e-09,i,1%,1.7%,i
CCOC(=O)c1cc2cc(C)ccc2[nH]1,2.9e-08,i,7%,-0.1%,i
COC(=O)C1=C(N)Oc2cc(C)n(Cc3cccnc3)c(=O)c2C1c1ccc(OC)c(OC)c1OC (configuration not stated),1e-09,i,-4%,-0.4%,i
CCCC(=O)Nc1c(O)c2ccccc2[nH]c1=O,1e-09,i,4%,-0.2%,i
COC(=O)c1ccc(C(=O)OC)c(NC(=O)c2cc3ccccc3o2)c1,1e-09,i,.,.,i
CC(=O)c1cccc(NC(=O)N2CCCC2C(=O)NCc2ccccc2)c1 (configuration not stated),1.1e-08,i,0%,0.6%,i
Cc1nn(CC(O)COc2ccc3c(c2)CCC3)c(C)c1C (configuration not stated),1.7e-08,i,14%,0.1%,i
CCCSc1nnc(NC(=O)Nc2ccccc2)s1,1e-09,i,.,.,i
NC(=O)C1CCCN(S(=O)(=O)c2ccccc2)C1 (configuration not stated),1.3e-09,i,1%,0.0%,i
COc1ccc(NC(=O)c2ccco2)cc1NC(=O)c1ccc(Br)o1,1e-09,i,.,-2.0%,i
CCC(C)(C)n1nnnc1C(c1cc2cc(OC)c(OC)cc2[nH]c1=O)N1CCc2ccccc21 (configuration not stated),2.5e-08,i,?,0.2%,i
CC(=O)c1cccc(NC(=O)N2CCCC2C(=O)Nc2cccc(C)c2)c1 (configuration not stated),2.2e-08,i,2%,-1.3%,i
CC(=O)Nc1nc2ccccc2n1Cc1ccccc1C,2.1e-09,i,7%,0.0%,i
CC(=O)O[C@H]1CSC[C@H]1NC(=O)c1ccccc1,1e-09,i,3%,1.2%,i
O=C(O)CCSc1ncnc2nc[nH]c12,2.5e-08,i,5%[11.4 µM],0.9%[11.5 µM],i
C=CC(=O)OCCOCCOCCOCCOC(=O)C=C,.,.,?,-0.7%&1.6%,.
CC(C)c1nnc(NC(=O)CN(C)S(=O)(=O)c2ccc3c(c2)OCCO3)s1,7.1e-09,i,5%,0.2%,i
Cc1c(NC(=O)C(C)Sc2nnc(-c3ccccc3)o2)c(=O)n(-c2ccccc2)n1C (configuration not stated),1e-09,i,-8%,-1.5%,i
Cc1cc(SCC(=O)OCC(=O)N2CCN(C(=O)c3ccco3)CC2)c(C)cc1Br,1e-09,i,13%,-1.0%,i
COc1ccc(NC(=O)CSc2nc(C)cc(C(F)(F)F)n2)cc1,4.1e-08,i,5%,1.6%,i
CC(=O)n1c2ccccc2c2c(C#N)c(N3CCCCC3)sc21,2.6e-08,i,6%,0.0%,i
CC1(C)CCCC2=C1CC1C(=O)N(c3ccccc3)C(=O)C1C2 (configuration not stated),1e-09,i,9%,0.6%,i
O=C(O)CC1(C(=O)O)CCCCC1,4.9e-08,i,-2%[11.4 µM],1.0%[11.5 µM],i
COc1ccc(N2CCN(CCNC(=O)C3CCN(S(=O)(=O)c4cccs4)CC3)CC2)cc1,1.7e-09,i,7%,-0.3%,i
O=C(CNC(=O)c1ccco1)OCc1c(F)cccc1Cl,1e-09,i,2%,0.1%,i
CCOC(=O)c1cc2cc(-c3c(C(=O)OCC)oc4cc(O)cc(O)c4c3=O)ccc2o1,2.9e-09,i,14%[11.4 µM],-3.6%,i
CCc1cccc2c3c([nH]c12)C(CC)(CC(=O)O)OCC3 (configuration not stated),1e-09,i,.,-1.4%,i
CC(C)(C)NC(=O)c1ccc2c(c1)N(CC(=O)N1CCN(c3ccc(F)cc3)CC1)C(=O)C(C)(C)O2,2.6e-08,i,5%,1.8%,i
CCCCc1nc2ccccc2c(C(=O)O)c1C,7e-09,i,4%,0.0%,i
Cc1ccc2nc(NC(=O)c3cccs3)sc2c1,2.7e-09,i,-8%[11.4 µM],-1.5%,i
CCC(C)NC(=O)c1cnn2c(C)c3c(nc12)CCCC3 (configuration not stated),3.2e-08,i,.,-0.7%,i
CCOC(=O)c1cc(-c2cc3ccccc3o2)n[nH]1,2.7e-09,i,2%,-2.1%,i

# Compound profiles, from the list above.
# `CCCC(=O)Nc1c(O)c2ccccc2[nH]c1=O` is entered as A647 fluor: 1e-09; A488 fluor: i; TSHR agonist: 4%; AID923: -0.2%; Resorufin autofl: i
# `CC(=O)Nc1nc2ccccc2n1Cc1ccccc1C` is entered as A647 fluor: 2.1e-09; A488 fluor: i; TSHR agonist: 7%; AID923: 0.0%; Resorufin autofl: i
# `CC(CN(C)Cc1ccccc1)OC(=O)c1ccc2c(c1)OCCO2` (configuration not stated) is entered as A647 fluor: 4.3e-09; A488 fluor: i; TSHR agonist: ?; AID923: 1.5%; Resorufin autofl: i

# Retrieved by compound from above (two):
SMILES,A647 fluor,A488 fluor,TSHR agonist,AID923,Resorufin autofl
CC(=O)O[C@H]1CSC[C@H]1NC(=O)c1ccccc1,1e-09,i,3%,1.2%,i
CC(C)(C)NC(=O)c1ccc2c(c1)N(CC(=O)N1CCN(c3ccc(F)cc3)CC1)C(=O)C(C)(C)O2,2.6e-08,i,5%,1.8%,i
